Mtb hypoxia inh: PubChem AID 1159583; M. tuberculosis hypoxia-regulated fluorescent reporter, fluorescence; fluorescence inhibition, % (test concentration not listed); 300,000 tested, 0.1% active;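 active = 35 to 45% if threefold the growth effect, above 45% if 1.5-fold the growth effect; inactive = the rest, general growth blockers included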;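 note: wells of about 50 µL received 100 nL stock; 0% = vehicle wells and 100% = reference inhibitor wells; whole bacteria with a GFP reporter of the hypoxia response; strong numbers were not always called active; many hits fall short of the cut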
Sa ugtP lethal: growth inhibition of ugtP-null S. aureus, primary screen, RN4220 ugtP deletion, OD600. 16 h; some inactives read as strong as hits. 330,000 tested, 0.54% active. growth inhibition, % (test concentration not listed). AID 1259309, 2017;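 active = z-score under -3 and OD600 up to 0.15 on both plates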;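 note: plate controls were untreated wells for no effect and antibiotic for full effect; wells of about 80 µL received 100 nL stock; the first replicate is given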
RN4220 kill: growth inhibition of S. aureus RN4220, primary screen, OD600. 16 h. inhibition, % (concentration not given with the values). 330,000 tested, 0.33% active;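 active = z-score of -3 or lower and OD600 up to 0.18 on both plates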;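 note: plate controls were untreated cells for no effect and reference antibiotic for full effect; stock transfer was 100 nL into about 80 µL; one replicate is shown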
Autofluor counter: flagged as autofluorescent in microsphere protease counterscreen; fluorescence intensity (no concentration beside the values); compound autofluorescence counterscreen, microsphere flow cytometry; hits give high values; 360,000 tested, 3.1% active;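 active = at least 3 SD above the mean of all compounds, about 16000 in these data; inconclusive = too few beads counted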;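 note: 100 nL of 1 mM stock went into each well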
BJeLR lethal: MLPCN primary cell-based screen for lethality selective to Ras in HRASV12 cells. BJeLR (HRASV12) viability, CellTiter-Glo ATP luminescence, 48 h; reference of the scale not given here. inhibition, % (test concentration not listed). 300,000 tested, 0.17% active;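 active = replicate mean above 50%; inconclusive = above 50% but judged a plate artefact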;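 note: 50 nL library stock added to about 25 µL; numbers are from one replicate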
PrP UTR inh: inhibition of PrP 5' UTR reporter expression; cell-based PrP 5' UTR mRNA reporter, plate reader; inhibition, % (no concentration beside the values); 340,000 tested, 0.35% active; AID 488862, 2010;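 active = every replicate at 50% or more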;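 note: 0 = median of the neutral control wells; tested in H4 reporter cells; numbers are from one replicate; inactives centre near -14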
Mtb hypoxia inh growth: further read-out of Mtb hypoxia inh, marked with its call; growth inhibition, %; measured here: M. tuberculosis growth (absorbance);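 0% = vehicle and 100% = reference antibiotic; read after six days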
* marks the source's active call; other numbers are inactive results; ? = inconclusive; nt = no result given; & = joins results of further samples.

SMILES | Mtb hypoxia inh | Mtb hypoxia inh growth | Sa ugtP lethal | RN4220 kill | Autofluor counter | BJeLR lethal | PrP UTR inh
CCOc1ccc(NC(=S)NC(=O)c2c(Cl)cnn2CC)c([N+](=O)[O-])c1 | 9 | 4 | 21 | 5.2 | 2381 | 4 | 6
CCC(C)n1c(SCC(=O)C(C#N)=C(C)N)nc2ccccc2c1=O (configuration not stated) | 6 | 8 | 2 | 4.3 | nt | nt | nt
Clc1ccc(CON/C=N/c2ncnc3sccc23)cc1 | nt | nt | nt | nt | 3007 | -1 | -18
CCNC(=S)N/N=C/c1cccc(/C=N/NC(=S)NCC)c1 | nt | nt | nt | nt | 5812 | 4 | -11
Cc1cc2cc(CNC(=O)c3ccc(C)c([N+](=O)[O-])c3)ccc2[nH]1 | 4 | 5 | 1 | 2.2 | 3000 | -13 | -12
O=C(O)CNC(=O)/C(=C\c1cccc([N+](=O)[O-])c1)NC(=O)c1ccco1 | 11 | 4 | 4 | 1.3 | 4878 | 3 | -2
C=C(C)COc1ccc(-c2n[nH]c(C)c2-c2ccc(Br)cc2)c(O)c1 | -3 | 15 | 42 | -18 | 11607 | 3 | -51
COc1ccc2cc(C3=CC(=O)CCC3)ccc2c1 | 6 | 9 | 4 | 11 | 4177 | nt | -57
COc1cccc(CNC(=O)CCC2CCCN(C(=O)c3cccnc3SC)C2)c1 (configuration not stated) | 16 | -10 | 4 | 0.7 | 5779 | 2 | -14
CC(C)CCn1nc(C(=O)Nc2nc3c(s2)CCCC3)c2ccccc2c1=O | 1 | -5 | -30 | 1.9 | 2565 | 2 | 8
Cc1ccc(S(=O)(=O)N(C)c2ccc(C(=O)NCCc3ccccc3)cc2)cc1 | 1 | 1 | 9 | -5.4 | 4904 | 15 | -30
COc1ccc(/C=C/c2nc(-c3ccccc3O)n[nH]2)cc1OC | 2 | -2 | 0 | 15 | 2037 | 1 | -159

Ordered by formula weight (descending): some entries from above.
SMILES | Mtb hypoxia inh | Mtb hypoxia inh growth | Sa ugtP lethal | RN4220 kill | Autofluor counter | BJeLR lethal | PrP UTR inh
COc1cccc(CNC(=O)CCC2CCCN(C(=O)c3cccnc3SC)C2)c1 (configuration not stated) | 16 | -10 | 4 | 0.7 | 5779 | 2 | -14
C=C(C)COc1ccc(-c2n[nH]c(C)c2-c2ccc(Br)cc2)c(O)c1 | -3 | 15 | 42 | -18 | 11607 | 3 | -51
CC(C)CCn1nc(C(=O)Nc2nc3c(s2)CCCC3)c2ccccc2c1=O | 1 | -5 | -30 | 1.9 | 2565 | 2 | 8

Back to the main list, starting 3 compounds before the break.
SMILES | Mtb hypoxia inh | Mtb hypoxia inh growth | Sa ugtP lethal | RN4220 kill | Autofluor counter | BJeLR lethal | PrP UTR inh
CC(C)CCn1nc(C(=O)Nc2nc3c(s2)CCCC3)c2ccccc2c1=O | 1 | -5 | -30 | 1.9 | 2565 | 2 | 8
Cc1ccc(S(=O)(=O)N(C)c2ccc(C(=O)NCCc3ccccc3)cc2)cc1 | 1 | 1 | 9 | -5.4 | 4904 | 15 | -30
COc1ccc(/C=C/c2nc(-c3ccccc3O)n[nH]2)cc1OC | 2 | -2 | 0 | 15 | 2037 | 1 | -159
COc1ccc(C(=O)C2CCCN(Cc3ccc(F)cc3F)C2)cc1F (configuration not stated) | 10 | 2 | -4 | 1.8 | 3636 | 7 | -17
CCOC(=O)c1ccc(NC(=O)CN(c2ccc(C)cc2)S(=O)(=O)c2c(C)nn(C)c2C)cc1 | 9 | 8 | 12 | 10 | 10520 | -5 | -16
O=C(Nc1ccc(S(=O)(=O)Nc2ccc(F)cc2)cc1)c1ccc(CN2CCOCC2)cc1 | 1 | 2 | 9 | -3.3 | 3975 | 13 | -25
NC(=O)NOCc1cccc(Cl)c1 | 2 | 0 | 16 | 7.8 | 4347 | -8 | -18
COc1ccc(CC(=O)Oc2ccc(F)c(F)c2)cc1S(=O)(=O)N1CCOCC1 | 1 | 11 | 5 | 2.9 | 4541 | 11 | -10
COc1ccc(C(=O)NCc2ccc3c(c2)cc(C)n3C)cc1 | -4 | -2 | 0 | 4.4 | 1203 | -7 | -21
COc1ccc(CN2CCNC(=O)C2CC(=O)N2CCCN(C(C)=O)CC2)cc1OC (configuration not stated) | 3 | -4 | 9 | 3.2 | 4446 | 10 | -11
Cc1ccc(C)c(NS(=O)(=O)c2ccc(OCC(=O)NCc3cccnc3)cc2)c1 | 2 | 7 | 0 | 6.6 | 2050 | 42 | -23
C/C(=N/NC(=O)c1ccccc1)C1=C(O)CC(C)(C)CC1=O | nt | nt | nt | nt | 2004 | -7 | -14
Cc1ccc(C=NNC(=O)Cn2nc(C)c(Br)c2C)o1 | 8 | 15 | -2 | -1.7 | nt | nt | nt
CCOC(=O)CC(NC(=O)C1c2ccccc2Oc2ccccc21)c1ccc(C)cc1 (configuration not stated) | 6 | 2 | 9 | 3.2 | 7844 | 9 | -18
Cc1nn(C)c(C)c1N1C(=O)c2cccc3c(N)ccc(c23)C1=O | -24 | 4 | -1 | 2.9 | 9179 | nt | -22
Cc1ccc(C(=O)NCC(=O)NN=Cc2cccs2)cc1C | -5 | -1 | 13 | 10 | nt | nt | nt
CC(=O)Nc1sc(C)c(C)c1C(=O)OCC(=O)N(Cc1ccccc1)C(C)C | 2 | 5 | 4 | 1.2 | 3931 | nt | -3
Cc1ccc(CC(=O)CCc2ccccc2)cc1 | 8 | 6 | 1 | -8.0 | 4118 | 4 | -15
Oc1ccccc1/C=N/NC1=NCCCCC1 | nt | nt | nt | nt | 9566 | 0 | -43
Cc1ccc(Cn2c(SC(C)C(N)=O)nc3ccccc3c2=O)cc1 (configuration not stated) | 2 | 2 | -11 | 0.8 | 4457 | 10 | -33
COc1ccccc1C1c2[nH]c3ccccc3c2CCN1Cc1ccc(NC(C)=O)s1 (configuration not stated) | 7 | 15 | -9 | 1.7 | 4554 | 17 | 2
O=C(OCc1csc(-c2ccccc2)n1)C1=NN(c2ccccc2)C(=O)CC1 | 8 | 9 | 10 | 6.5 | 7891 | nt | -22
CN(C)c1ccc(C(CNS(=O)(=O)c2ccc([N+](=O)[O-])cc2)N2CCCC2)cc1 (configuration not stated) | -1 | -2 | 9 | 5.6 | ? | -1 | 7
COCCCNC(=O)CC(NS(=O)(=O)c1ccc(Cl)cc1)c1ccco1 (configuration not stated) | nt | nt | -1 | 0.2 | 3876 | 1 | -22
CCC(C)(O)c1[nH]c2ccc(C#N)cc2c1C (configuration not stated) | 6 | -5 | 5 | 2.6 | 3446 | -7 | -5
Cn1c(=N)n(CC(O)c2cccc3ccccc23)c2ccccc21 (configuration not stated) | nt | nt | -7 | -1.6 | 2937 | 1 | 12
CC(=O)OCc1cc2cc(C)ccc2[nH]c1=O | 6 | 2 | 2 | 5.1 | 3379 | 2 | -4
Cc1[nH]c2ccccc2c1C=NNC(=O)c1cc(C(C)C)[nH]n1 | 7 | 18 | -1 | 1.3 | nt | nt | nt
COC(=O)[C@H]1[C@@H](C)N(Cc2ccccc2)C(=O)N[C@H]1c1ccccc1 | nt | nt | nt | nt | 3897 | -2 | -7
COCCCN=Cc1c(O)[nH]c(=S)[nH]c1=O | nt | nt | 4 | -2.9 | 6138 | 2 | -18
CN1C(C(=O)Nc2ccccn2)=C(O)c2ccccc2S1(=O)=O | -2&-1 | -2&4 | 5&2 | 50&48 | 6344 | -12&4 | -15
CCOc1ccccc1N(CC(=O)N1CCOCC1)S(=O)(=O)c1ccc(SC)cc1 | -2 | 8 | -10 | -5.0 | 2434 | 9 | -1
O=c1[nH]c(=O)n(CCc2ccccc2)c(O)c1C=NC1CC1 | 5 | -4 | 8 | 0.9 | 3895 | 7 | -31
C=CCn1c(CC#N)nnc1N1CCOCC1 | -6 | -3 | 0 | 5.6 | 9397 | 0 | -7
O=C(NN=Cc1ccccc1O)C(=O)N1CCCCCC1 | 3 | -7 | 2 | 4.9 | nt | nt | nt
Cc1onc(-c2ccccc2Cl)c1C(=O)NNC(=O)C1CCN(Cc2ccccc2)CC1 | 10 | 11 | 10 | 0.5 | 4410 | 3 | -2
O=C(CN1CCOCC1)N1CCN(S(=O)(=O)c2ccccc2)C1c1ccccc1 (configuration not stated) | 2 | 0 | 2 | 1.1 | 15863 | -3 | -17
Cc1cc(NC(=O)c2cccc(S(=O)(=O)N3c4ccccc4CC3C)c2)no1 (configuration not stated) | 11 | -8 | 16 | 6.9 | 5159 | 12 | -12
O=C(Nc1ccc(SC(F)F)cc1)c1cccc2nc3ccccc3nc12 | nt | nt | -4 | 0.5 | 3178 | -8 | -26
Cc1cc(NC(=O)CSc2nc3c(cc2C#N)CCC3)no1 | 17 | 7 | -1 | 3.3 | 5395 | 8 | -56
O=C(CN(Cc1ccccc1F)C(=O)c1ccco1)NCc1ccc(F)cc1 | nt | nt | 6 | 2.5 | 3178 | -3 | -15
CCSc1oc(-c2ccco2)nc1S(=O)(=O)c1ccccc1 | 3 | 17 | 2 | 6.2 | 6393 | 2 | -15
CCc1cc(=O)oc2cc(OC(C)C(=O)O)c(Cl)cc12 (configuration not stated) | 1 | 0 | 0 | 3.8 | 4139 | -3 | -15
O=C1CCCC2=C1C(c1cccs1)n1nc(SCc3ccccc3F)nc1N2 (configuration not stated) | 16 | 4 | -4 | 4.1 | 4472 | -4 | -8
COc1ccc(CNCCC(c2ccc(OC(C)C)cc2)C(C)C)cc1OC (configuration not stated) | -1 | 2 | -5 | -1.4 | 10332 | -1 | -9
OC(CCN1CCOCC1)(c1ccc(Cl)cc1)C1CCCCC1 (configuration not stated) | nt | nt | 5 | 5.0 | 5321 | 10 | -5
CCCn1nc(C(=O)NNC(=O)c2cccc(S(=O)(=O)NC(C)C)c2)c2ccccc2c1=O | 6 | 9 | 10 | 2.9 | 6322 | -8 | -12
CCS(=O)(=O)N1CCC(C(=O)NCCc2ccc(OC)c(OC)c2)CC1 | -1 | -3 | -1 | -5.2 | 10683 | 2 | -11
N#Cc1ccc(N2Cc3ccccc3C2=NC(=O)c2cccnc2Cl)cc1 | 4 | 8 | -15 | 2.5 | 1935 | -9 | -23
CC(Oc1ccc(C#N)cc1)C(=O)Nc1ccc(-n2cnnn2)cc1 (configuration not stated) | -4 | 3 | -1 | 3.4 | 6031 | nt | -25
C=CCSc1nc2c(c(=O)n(C)c(=O)n2C)n1CC | -1 | 13 | 2 | 2.9 | 10219 | 4 | 0
C=CCc1cccc2cc(C(=O)Nc3ccc(NC(C)=O)cc3)c(=O)oc12 | 0 | -3 | 8 | 3.4 | 4065 | -4 | -33
O=C(COC(=O)c1cc(=O)[nH]c2ccccc12)Nc1ccc(Cl)c(S(=O)(=O)N2CCOCC2)c1 | -4 | -10 | 3 | 2.4 | ? | nt | 3
Fc1ccc(Br)cc1SCCc1ccncc1 | 11 | 7 | 18 | 6.8 | 3619 | 14 | -5
COC(CNC(=O)C(=O)Nc1ccc2c(c1)N(S(=O)(=O)c1cccs1)CCC2)OC | 4 | -1 | 0 | 4.3 | 5590 | 6 | 4
O=C(NCc1cccnc1)c1ccc(COc2ccccc2Cl)cc1 | -2 | 6 | 14 | 3.3 | 3039 | -7 | -30
CC/C(C)=C1/NC(=O)NC1=O | 14 | 4 | 3 | -0.2 | 2858 | nt | -16
COC(C[C@@H](O)[C@@H](C)[C@H](O)COCc1ccccc1)OC | nt | nt | nt | nt | 2922 | -6 | -9
CCn1nnnc1SCC(=O)N(C1CCCCC1)C1CCCCC1 | nt | nt | 0 | 1.1 | 4036 | 7 | -25
O=C(NC(=S)Nn1cnnc1)c1ccccc1Cl | 9 | 7 | 0 | 1.6 | 4570 | 4 | 78*
N#Cc1ccsc1NC(=O)COC(=O)c1ccc(Br)o1 | 5 | 0 | -2 | 0.9 | 6185 | nt | -29
Cc1nc2ccc(NC(=O)c3ccco3)cc2s1 | 2 | -1 | 6 | 0.5 | 2185 | -3 | -15
CCCc1nc2n[nH]c(N)c2c2c1CCC2 | nt | nt | -4 | -0.7 | 2759 | 6 | -15
Later entries:
SMILES | Mtb hypoxia inh | Mtb hypoxia inh growth | Sa ugtP lethal | RN4220 kill | Autofluor counter | BJeLR lethal | PrP UTR inh
CCC(C)Sc1ccc(-c2nc3ccccn3c2NCc2ccccc2)cc1OC (configuration not stated) | -19 | -2 | 3 | 3.0 | 3976 | nt | -3
Cc1c(Cl)cccc1S(=O)(=O)N1CCC(C(=O)NNC(=O)C2CC2)CC1 | 3 | -19 | 1 | 1.6 | 4551 | -1 | -21
Cc1ccc(C(=O)NC(C)C(c2cccs2)N2CCCC2)s1 (configuration not stated) | 13 | 2 | -1 | 0.3 | 7061 | 1 | -10
CC1(C)C(=O)Nc2ccccc2N1C(=O)CSc1ncccn1 | 13 | 4 | -2 | 2.2 | 3274 | -2 | -12
